Screening data (PubChem BioAssay)
Cruzain Triton = inhibitors of Trypanosoma cruzi cruzain with detergent. P25779. Potency, µM, for the others: max response, negative = inhibition, usual class: inhibitors. AID 1478. purified cruzain, Z-FR-AMC fluorescence, 0.01% Triton. 200,000 tested, 0.43% active;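 further: plate controls were neutral wells for no effect and buffer without enzyme for full effect; nearly all actives have a fitted effect of over 40% in size; top concentration of the series not given in the record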
Target sequence (P25779 123-467 limits assumed): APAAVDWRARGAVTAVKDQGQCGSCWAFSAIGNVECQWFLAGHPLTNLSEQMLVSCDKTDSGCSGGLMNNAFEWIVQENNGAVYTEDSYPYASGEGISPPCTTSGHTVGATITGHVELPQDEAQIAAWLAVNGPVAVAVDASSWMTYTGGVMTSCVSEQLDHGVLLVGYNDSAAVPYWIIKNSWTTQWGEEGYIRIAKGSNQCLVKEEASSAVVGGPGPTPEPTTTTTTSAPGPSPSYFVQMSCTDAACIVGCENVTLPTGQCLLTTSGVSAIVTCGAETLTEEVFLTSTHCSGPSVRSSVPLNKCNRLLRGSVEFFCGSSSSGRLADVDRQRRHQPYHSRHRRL
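Detergent-containing arm of a paired screen for aggregation-based inhibition: 0.01% Triton X-100 present. Cruzain at 1.5 nM cleaved 2 uM Z-FR-AMC at pH 5.5 with 5 mM DTT; AMC fluorescence gain over 60 s measured activity.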
RE007 growth inh = less growth of the S. pombe RE007 Vpr strain; 360,000 tested, 0.21% active; S. pombe RE007 Vpr strain, BacTiter-Glo ATP luminescence, 24 h; control for the full effect not named in the record; Potency, µM (titrated, usually from 92.2 µM), without a hit: at the highest dose activity change, negative = less growth; active = well fitted falling curve with a large enough effect; inconclusive = small, poorly fitted or top-dose-only effect; inactive = no such curve, though single readings can be large or run the other way;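 further: on the % scale 0 is the no-effect control and ±100 the full control effect; nearly all actives have a fitted effect of over 50% in size; the assay follows cell death caused by Vpr and the record does not say whether a fall means rescue or toxicity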
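Fission yeast strain RE007, carrying one chromosomally integrated HIV-1 vpr copy, was seeded at OD 0.01 in PMG+AL medium with 23 nL pinned compound. After 24 h at 30 °C and 99% humidity, viability was read by BacTiter-Glo luminescence.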
SARS PLpro yeast = blocks SARS-CoV papain-like protease in a yeast assay; S. cerevisiae expressing SARS-CoV PLpro, growth rescue; control for the full effect not named in the record; Potency, µM (doses to about 32.9 µM), inactives show at the highest dose activity, positive = growth rescue; 330,000 tested, 0.19% active; active means well fitted rising curve with a large enough effect; inconclusive means small, poorly fitted or top-dose-only effect; inactive means no such curve, though single readings can be large or run the other way; further: 0% is about no effect; nearly all actives have a fitted effect of over 55% in size; growth read by luminescence after 48 h
Cruzain inh noDet = inhibitors of Trypanosoma cruzi cruzain without detergent. purified cruzain, Z-FR-AMC fluorescence, no detergent. Potency, µM, inactives show max response, negative = inhibition, actives largely listed as inhibitors. 200,000 tested, 2.3% active;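 further: plate controls were enzyme without inhibitor for no effect and buffer without enzyme for full effect; nearly all actives have a fitted effect of over 40% in size; top concentration of the series not given in the record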
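Purified cruzain at 1.5 nM, pre-incubated 15 min with compound at room temperature in 100 mM sodium acetate pH 5.5, 5 mM DTT, 0.00005% Triton X-100. Reaction started with 2 uM Z-FR-AMC; AMC fluorescence increase over 60 s gives rate.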
NS1 inh = blocks influenza NS1 protein function; 270,000 tested, 0.4% active; S. cerevisiae slowed by influenza A NS1, growth recovery by OD600; Potency, µM (doses to about 46.1 µM), inactives show at the top dose activity, positive = more growth; active means well fitted rising curve with a large enough effect; inconclusive means small, poorly fitted or top-dose-only effect; inactive means no such curve, though single readings can be large or run the other way; further: nearly all actives have a fitted effect of over 50% in size
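In this qHTS, NS1 from influenza A is expressed in budding yeast, where it slows growth. Cells are switched from glucose to 2% galactose medium (pH 6.0, -URA), treated with compound, and growth recovery is read at OD600.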
StopGo reporter = lowers the luciferase signal of an FMDV 2A StopGo reporter; human cells with a luciferase reporter of 2A StopGo recoding; control for the full effect not named in the record; Potency, µM (doses to about 57.9 µM), for the others: at the highest dose signal change, negative = less light; 410,000 tested, 1.2% active; active = well fitted falling curve with a large enough effect; inconclusive = small, poorly fitted or top-dose-only effect; inactive = no such curve, though single readings can be large or run the other way; tested in HEK293T cells; further: on the % scale 0 is the no-effect control and ±100 the full control effect; nearly all actives have a fitted effect of over 45% in size; luciferase light after 4 h
LASV entry inh = Lassa virus entry inhibition | Lassa virus pseudotype entry inhibition, cell reporter; control for the full effect not named in the record | 300,000 tested, 1.2% active | Potency, µM (top dose mostly 37.9 µM), for inactives: at the highest dose activity change, negative = inhibition, hits mostly inhibitors | AID 540256; active means well fitted inhibition curve with a large enough effect; inconclusive means small, poorly fitted or top-dose-only effect, or effect the other way; inactive means flat fitted curve, though single readings scatter; tested in HEK293 cells; further: on the % scale 0 is the no-effect control and ±100 the full control effect; nearly all actives have a fitted effect of over 50% in size; luciferase read-out
Marburg entry inh = inhibitors of Marburg virus binding or cell entry. Marburg virus pseudotyped entry inhibition, cell reporter; control for the full effect not named in the record; about a third of the inactives were read at about 46 µM. Potency, µM (doses to about 37.8 µM), for inactives: at the top dose activity change, negative = inhibition, most hits filed as inhibitors. 300,000 tested, 1.8% active; active = well fitted inhibition curve with a large enough effect; inconclusive = small, poorly fitted or top-dose-only effect, or effect the other way; inactive = flat fitted curve, though single readings scatter; tested in HEK293 cells; about a fifth of its hits are not listed in these tables; further: on the % scale 0 is the no-effect control and ±100 the full control effect; luciferase read-out
* hit, by the source's call; ? = inconclusive; / = not tested or not shown; [ ] = another dose, or the depositor's remark. Unless noted, the call rests on the fitted dose curve; in most records, active means well fitted curve in the direction sought with a large enough effect; inconclusive means small, poorly fitted or top-dose-only effect, or another doubt; inactive means no such curve, though single readings can be large; an effect the other way counts as inactive or inconclusive. Potency means the concentration at half of the fitted maximal effect.

Structure | Cruzain Triton | RE007 growth inh | SARS PLpro yeast | Cruzain inh noDet | NS1 inh | StopGo reporter | LASV entry inh | Marburg entry inh
COc1ccc(-n2c(-c3ccc(F)cc3)cnc2SCC(=O)NCc2ccco2)cc1 | -5.5% | 0% | -12% | -3% | -3% | 28% | -5% | -6%
O=C(COc1ccc(F)cc1)Nc1ccc(S(=O)(=O)N(Cc2ccccc2)c2ccccc2)cc1 | 2.1% | / | / | -24% | / | -12% | ? | ?
COc1ccccc1CNS(=O)(=O)c1ccc(-c2cnc(C3CC3)o2)cc1 | -4.5% | 2% | -7% | 5% | 6% | ? | ? | /
O=C(NCC1CCCN1S(=O)(=O)c1ccccc1)C(=O)NC1CC1 (stereo unspecified) | / | -20% | 2% | / | / | -13% | -1% | 26%
COc1ccccc1N1CCN(C(=O)c2cc(N3C(=O)C4C5CCC(C5)C4C3=O)ccc2Cl)CC1 (stereo unspecified) | -9.5% | 5% | -2% | ? | 4% | ? | -13% | 2%
COc1ccc(CN2CCN(C(=O)c3ccc(CNS(=O)(=O)c4ccc(C)cc4)cc3)CC2)c(OC)c1OC | / | -11% | 0% | / | -15% | ? | / | /
CCn1c(-c2ccc(C)cc2)nn(CC(=O)NCCc2ccccc2)c1=S | -1.9% | 2% | -8% | -2% | 1% | 11% | ? | 8.9µM*
Cc1cc(N2CCOCC2)n2nc(C)c(-c3ccccc3)c2n1 | -0.3% | 4% | -2% | ? | -5% | ? | -14% | -1%
O=C1NC(=O)N(Cc2ccccc2F)C1=O | / | 13% | 0% | / | 0% | -3% | / | /
COc1ccccc1Oc1ccc(-c2cnc3ccccc3n2)cc1[N+](=O)[O-] | / | 2% | -1% | / | 12% | 1% | ? | ?
COc1ccc(Cl)cc1NC(=O)c1noc(C)c1[N+](=O)[O-] | / | 1% | ? | / | -19% | -3% | / | /
CC1CC(C(F)(F)F)n2ncnc2N1 (stereo unspecified) | 2.4% | 8% | 0% | -4% | 3% | -17% | 4% | 4%
CC(C)(C)OC(=O)N1CCC[C@H]1C(=O)OCC(=O)Nc1cc(S(C)(=O)=O)ccc1Cl | / | 5% | 0% | / | / | -16% | 23% | -1%
CCCOC(=O)Nc1cc(OC)ccc1[N+](=O)[O-] | / | -4% | -3% | / | / | 25% | 3% | 4%
Cc1ccc(NC(=O)C2CCN(S(=O)(=O)c3c(C)n[nH]c3C)CC2)nc1 | 3.7% | 8% | 1% | -8% | 1% | 0% | 10% | -14%

Structure | Cruzain Triton | RE007 growth inh | SARS PLpro yeast | Cruzain inh noDet | NS1 inh | StopGo reporter | LASV entry inh | Marburg entry inh
COc1ccc(-c2c3c(=O)n(C)c(=O)n(C)c3cn2-c2cccc(N)c2)cc1 | -8.2% | / | / | ? | / | -17% | ? | -2%[46.1 µM]
CCOc1ccc(NC(=O)c2ccccc2OC)cc1 | 1.8% | -21% | ? | -5% | -14% | 80%[activator] | -10% | 2%
COc1ccc(-c2nn(CC(=O)Nc3ccccc3F)c3c2cnc2ccc(F)cc23)cc1 | -0.9% | / | / | 2% | / | 32%[activator] | 15%[46.1 µM] | /
CC(C)[C@H](NS(=O)(=O)c1ccccc1)C(=O)OCC(=O)NC(=O)NC1CCCCC1 | / | 10% | -2% | / | / | -7% | 0%[46.1 µM] | -11%[46.1 µM]
O=C(CSc1ccccn1)N1CCOCC1 | -0.6% | 12% | 3% | -7% | 5% | 20% | 4% | 18%
CN(Cc1ccc(F)cc1)C(=O)c1ccc2c(c1)NC(=O)CS2 | / | 7% | 0% | / | 4% | 63%[activator] | / | /
C(=N\Nc1nc(-c2ccccc2)cs1)/c1cccnc1 | -8.4% | 5% | -31% | -8% | -10% | -23% | ? | ?
O=C(OCc1nc2ccccc2[n+]([O-])c1C(=O)c1ccccc1)c1ccco1 | / | 5% | -3% | / | -2% | 4% | ? | ?
CCOC(=O)C1C(=O)NC(N2CCCCC2)=NC1c1ccccc1 (stereo unspecified) | 5.2% | 12%[3.69 µM] | 3% | -3% | 1% | -5% | 6% | -20%
O=C(NCC(=O)N1CCCC1)c1ccc(Cl)cc1 | / | -1% | -8% | / | 14% | 24% | 28%[46.1 µM] | 3%[46.1 µM]
C=CCn1c(SCC(=O)Nc2ccc(N3CCOCC3)cc2)nnc1-c1ccncc1 | / | 15% | 13% | / | 6% | 8% | / | 0%[46.1 µM]
O=c1[nH]c2cc3c(cc2cc1CN(CC1CCCO1)S(=O)(=O)c1ccccc1)OCCO3 (stereo unspecified) | 0.4% | -3% | 9% | 7% | -2% | / | -26% | -20%
Cc1c(NC(=O)CN2C(=O)C(=O)c3ccccc32)c(=O)n(-c2ccccc2)n1C | / | -2% | 0% | / | 2% | -12% | 2% | 20%[46.1 µM]
CCc1cccc(NS(=O)(=O)c2cc(-c3cnc(C)o3)ccc2OC)c1 | -5.7% | / | / | -25% | / | 68%[activator] | 1%[46.1 µM] | /
CCC1CN(C(=O)Nc2cccc3c2CCCC3)c2cc(C)ccc2O1 (stereo unspecified) | -3.8% | / | / | 13% | / | -17% | 7%[46.1 µM] | /

Structure | Cruzain Triton | RE007 growth inh | SARS PLpro yeast | Cruzain inh noDet | NS1 inh | StopGo reporter | LASV entry inh | Marburg entry inh
CCCc1nc2ccccc2n2c(-c3cccc(C)c3)c3c(=O)n(C)c(=O)n(C)c3c12 | -3.7% | / | / | -1% | / | ? | ? | ?
Cc1ccc(NCc2nnc(SCC(=O)N3CCCc4ccccc43)o2)c(C)c1 | -4.3% | 29% | -1% | 5% | -37% | 0% | 7% | -7%[46.1 µM]
O=C(COC(=O)CSc1ccc(F)cc1)NCCCc1ccccc1 | / | 12% | 2% | / | / | -9% | -14% | 6%[46.1 µM]
COCCOC(=O)c1c(C)n(C)c2ccc(OC(=O)N(C)C)cc12 | 4.8% | 30% | 2% | 3% | -11% | -17% | 3% | -1%
Cc1ccsc1C1Nc2ccc3ncccc3c2C2=C1C(=O)CCC2 (stereo unspecified) | -6.5% | -18% | -6% | -12% | 2% | -17% | ? | ?
CC(=O)c1ccc(N2CCN(C(=O)C3CCN(S(=O)(=O)c4cccc5nonc45)CC3)CC2)cc1 | -1.7% | / | / | 28% | / | -19% | ? | /
O=C(CSc1ccc(-c2ccccn2)nn1)N1CCCc2ccccc21 | / | 19% | 3% | / | -9% | ? | 3% | 13%[46.1 µM]
O=S(=O)(c1ccc(Cl)cc1)N1CCN(c2ncccn2)CC1 | / | -6% | 1% | / | -4% | -6% | ? | -11%[46.1 µM]
COc1ccc(/C=C/C(=O)Nc2ccc(C)cc2)cc1 | -14% | / | / | 4% | / | 36%[activator] | ? | /
COC(=O)c1ccc(NC(=O)CN2CCOCC2)cc1 | 3.8% | 2% | 3% | 7% | -4% | 0% | 1% | -4%
CCOc1ccccc1N(CC(=O)NC1CCCCC1)C(=O)CCC(=O)Nc1nccs1 | / | -9% | 1% | / | -8% | -1% | 4% | -6%[46.1 µM]
CCOc1ccc(NCc2cccn2-c2nnc(N3CCC(C(=O)NCCCN4CCCCC4C)CC3)s2)cc1 (stereo unspecified) | / | -6% | 13% | / | -9% | -13% | / | /
Cc1cc(C)n(C(=O)CCCC(=O)n2nc(C)cc2C)n1 | 2.2% | -7% | -1% | -3% | -18% | -8% | 3% | -1%
CC(=O)Nc1cccc(-c2cn3ccccc3n2)c1 | / | -3% | -1% | / | -3% | 48%[activator] | 4% | -22%[46.1 µM]
Cc1nn(-c2ccccc2)c(C)c1NC(=O)COC(=O)Cc1ccccc1 | / | -2% | 9% | / | / | -11% | 1% | 0%

Structure | Cruzain Triton | RE007 growth inh | SARS PLpro yeast | Cruzain inh noDet | NS1 inh | StopGo reporter | LASV entry inh | Marburg entry inh
CC(=O)N1CCN(CC(C)(C)NS(=O)(=O)c2ccc(C)cc2)CC1 | / | 5% | -2% | / | 9% | -6% | 7%[46.1 µM] | 11%[46.1 µM]
Cc1ccc(-c2csc(N(CCCN3CCOCC3)C(=O)c3ccco3)n2)cc1 | -15% | 10% | -1% | -10% | -54% | / | ? | ?
COC(=O)CSc1nc(NCC(C)C)nc(N2CCOCC2)n1 | 0.1% | 0% | -1% | 1% | -10% | / | 9% | -14%
O=C(CCC(=O)OCC(=O)c1cccc([N+](=O)[O-])c1)Nc1cccc(Cl)c1Cl | -3.0% | -21% | 7% | -2% | 3% | -7% | -9% | -12%
O=C(CN1CCOCC1)Nc1ccc(NC(=O)c2ccccc2F)cc1 | / | -3% | -2% | / | 7% | 51%[activator] | 13%[46.1 µM] | 3%[46.1 µM]
COc1ccc(-c2csc(-n3ncc(-c4cccs4)c3N)n2)cc1 | 5.1% | 21% | 0% | 1.6µM* | 10% | 15% | -19% | -24%
Cc1ccsc1/C=N/NC(=O)CSCc1ccc(Cl)cc1 | -7.5% | -14% | -18% | -6% | -74% | 12% | -24% | -17%
O=C(CSCc1ccccc1Br)NNC(=S)NCc1ccco1 | / | 21% | 11% | / | 25% | 10% | -1% | -1%
CC(C)(C)NC(=O)NC(=O)CSc1nncs1 | / | 13% | -1% | / | -1% | -6% | 6% | 7%
COc1ccc(C(=O)NCc2ccco2)cc1S(=O)(=O)N1CCOCC1 | / | -2% | 3% | / | 0% | 4% | -4%[46.1 µM] | 15%[46.1 µM]
CCN(CC(=O)N1CCCC1)S(=O)(=O)c1cc(C)ccc1OC | / | 2% | 2% | / | 10% | 1% | -13% | -14%
CCc1cccc(NC(=O)C2CCN(S(=O)(=O)c3ccc(Br)s3)CC2)c1 | -5.0% | / | / | 8% | / | ? | -3%[46.1 µM] | ?
Cc1cc(O)ccc1N1C(=O)c2cccc3cc([N+](=O)[O-])cc(c23)C1=O | / | -2% | 0% | / | / | 4% | 2%[46.1 µM] | 21%[46.1 µM]
COc1ccc(CCn2c(C3CCCCC3)nc3c(c(=O)c4ccccc4n3C)c2=O)cc1 | / | -26% | 5% | / | 0% | ? | / | /
CCc1ccccc1NC(=O)C(=O)NCC(c1cccnc1)N1CCN(c2ccccc2F)CC1 (stereo unspecified) | -6.7% | / | / | 25% | / | 40µM* | -24%[46.1 µM] | /
